GCN5L2 inh: qHTS Assay for Inhibitors of GCN5L2 | Potency, µM (highest dose often 58.9 µM), for the others: top-dose activity change, negative = inhibition, most hits filed as inhibitors | hit rate 0.21% among 390,000 | GCN5L2 HAT assay, ThioGlo1 CoA-SH fluorescence | Histone acetyltransferase KAT2A (Homo sapiens), Q92830
Target sequence (Q92830 whole entry, looked up): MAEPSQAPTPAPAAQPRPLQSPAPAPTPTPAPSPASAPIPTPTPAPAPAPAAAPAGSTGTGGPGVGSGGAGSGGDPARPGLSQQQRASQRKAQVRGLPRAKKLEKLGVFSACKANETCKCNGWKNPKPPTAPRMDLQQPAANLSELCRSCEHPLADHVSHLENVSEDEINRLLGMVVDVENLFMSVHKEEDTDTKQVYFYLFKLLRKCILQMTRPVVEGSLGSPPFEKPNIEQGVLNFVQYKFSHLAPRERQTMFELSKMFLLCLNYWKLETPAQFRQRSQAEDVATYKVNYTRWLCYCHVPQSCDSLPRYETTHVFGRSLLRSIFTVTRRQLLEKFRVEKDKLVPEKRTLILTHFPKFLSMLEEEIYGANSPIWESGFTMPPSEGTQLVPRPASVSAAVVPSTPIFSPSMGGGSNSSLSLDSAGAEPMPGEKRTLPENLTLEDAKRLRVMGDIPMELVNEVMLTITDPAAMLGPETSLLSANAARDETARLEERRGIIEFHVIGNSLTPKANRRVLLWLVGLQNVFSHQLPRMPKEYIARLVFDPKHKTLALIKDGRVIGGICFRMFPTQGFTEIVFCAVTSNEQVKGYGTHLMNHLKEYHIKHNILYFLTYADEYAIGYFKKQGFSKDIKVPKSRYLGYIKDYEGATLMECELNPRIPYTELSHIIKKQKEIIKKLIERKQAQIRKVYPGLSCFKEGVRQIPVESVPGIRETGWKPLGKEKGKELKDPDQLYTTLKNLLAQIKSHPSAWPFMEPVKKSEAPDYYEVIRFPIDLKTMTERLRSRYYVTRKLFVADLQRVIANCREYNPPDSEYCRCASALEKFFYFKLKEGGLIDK
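Free CoA generated was detected with ThioGlo1 (50uM) fluorescence at Ex340nm/Em540nm, read immediately and after 20 min at room temperature. Enzyme, 20 nM in HEPES pH 7.5 buffer, saw compounds 15 min before adding 75uM H3(1-25) peptide and 70uM acetyl-CoA.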
N370S GC mod: qHTS Assay for Inhibitors and Activators of N370S glucocerebrosidase as a Potential Chaperone Treatment of Gaucher Disease; Lysosomal acid glucosylceramidase (Homo sapiens), P04062; N370S GC spleen homogenate, 4MU-glucoside fluorescence; Potency, µM (titrated, usually from 59.4 µM), without a hit: at the top dose activity change, negative = inhibition, hits mostly inhibitors; hit rate 0.092% among 330,000; AID 2101, 2009;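 note: 0% = full enzyme activity and -100% = no enzyme basal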
Numbers without * were called inactive; ? = inconclusive; . = no result given; & = joins results of further samples. Calls come from the whole dose curve; as a rule, active = well fitted curve in the direction sought with a large enough effect; inconclusive = small, poorly fitted or top-dose-only effect, or another doubt; inactive = no such curve, though single readings can be large; an effect the other way counts as inactive or inconclusive. Unless noted, % is set by controls: 0 for no effect and ±100 for the full control effect; potency is the fitted concentration of half-maximal effect.

GCN5L2 inh	N370S GC mod	smiles
-5%	-4%	Cc1cccc2[nH]c(CN(C)C(=O)C3CCC(=O)N(CCc4ccccc4)C3)nc12 (stereo not given)
-1%	0%	COc1ccc(-c2cccc(NC(=O)c3ccc4c(c3)OCO4)c2)nn1
2%	-4%	COc1ccc(CCNC(=O)CCC(=O)n2ncc3ccc(Cl)cc32)cc1OC
-12%	.	O=C(Nc1ccc(F)cc1)C(c1ccccc1)N1CCN(CC(=O)N2CCCC2)CC1 (stereo not given)
1%	-6%	CCOC(=O)c1cnc2c(c(C)nn2C)c1Oc1ccccc1F
-2%	9%	Clc1nc2nc3n(c2nc1Cl)CCC3
-8%	8%	CCC(C(=O)NC1CCCC1)N(Cc1cccs1)C(=O)Cn1nnc(-c2ccc(OC)c(OC)c2)n1 (stereo not given)
-2%	-14%	CC(C)N(C(=O)COC(=O)[C@@H]1CC(O)CN1S(=O)(=O)c1ccc(C(C)(C)C)cc1)C(C)C (stereo not given in full)
-5%	-8%	Cc1cccc(N2C(=O)c3ccc(C(=O)Nc4c[nH]c(=O)[nH]c4=O)cc3C2=O)c1
4%&-11%	1%	CCOC(=O)C1CCCN(S(=O)(=O)c2ccc3c(c2)N(C)C(=O)CC(=O)N3C)C1 (stereo not given)
0%	.	CN(C(=O)COC(=O)COc1ccc2ccccc2c1)c1c(N)n(Cc2ccccc2)c(=O)[nH]c1=O
0%	9%	COc1ccc(CNC(=O)NCc2ccc(OC)c(OC)c2)cc1OC
-1%	0%	COc1ccc(CNC(=O)c2cccc(S(=O)(=O)N3CCN(C)CC3)c2)cc1
1%	18%	CCCCCOc1ccc(NC(=O)CSc2cccc3cccnc23)cc1
-4%	1%	Cc1ccc(CN2CC(C(=O)NCCCSc3ccccc3)CC2=O)cc1 (stereo not given)
0%	0%	CCN(C(=O)c1ccc(Cl)cc1[N+](=O)[O-])c1ccccc1C
-9%	-1%	CCCCC1(C(=O)OCC)CC(CN2CCOCC2)OC1=O (stereo not given)
-1%	-5%	O=C(c1cccc(S(=O)(=O)N2CCc3ccccc32)c1)N1CCN(c2ccccc2)CC1
-7%	-1%	COC(=O)c1ccc2nc(-c3cccc(N)c3)cn2c1
-2%	-8%	COc1cc(C(=O)Nc2c(C(=O)O)[nH]c3ccc(Br)cc23)cc(OC)c1OC
-17%	7%	Cc1ccccc1Nc1ncnc2c1cnn2-c1ccccc1
-7%	-9%	CCC(=O)c1cc(-c2nc3ccccc3n2C)n(C)c1
-17%	-22%	COCCN1C(=O)C(CC(=O)Nc2ccc(C(C)=O)cc2)SC1=Nc1ccccc1 (stereo not given)
-10%	1%	COc1ccc(C(=O)c2ccc(CC(=O)O)s2)cc1
-1%	-13%	O=C1NC(NS(=O)(=O)c2ccccc2)(C(F)(F)F)C(=O)N1c1cccc(Cl)c1 (stereo not given)
-3%	?	Cn1cnnc1SCC(=O)Nc1ccc2nc(SCc3ccccc3F)sc2c1
-24%	-11%	Cc1cc(NC(=O)CSc2ccc(-c3ccc(Br)cc3)nn2)no1
-9%	.	COc1ccc(CCNC(=O)CSc2nc3[nH]c(=O)cc(O)c3s2)cc1
0%	13µM*	O=C(C1=C[C@@H](c2ccc(C(F)(F)F)cc2)C[C@@H](OCc2ccc(CO)cc2)O1)N1CCN(Cc2ccccc2)CC1
3%	9%	CCC(c1nnnn1Cc1ccco1)N1CCC(C(N)=O)CC1 (stereo not given)
2%	9%	Cc1cccc(NC(=O)CN2C(=S)NC(C)(C)CC2C)c1C (stereo not given)
3%	1%	C/C(O)=C(/C#N)c1nc2ccccc2[nH]1
-9%	6%	NNC(=O)c1cc(C23CC4CC(CC(C4)C2)C3)nc2ccccc12
-19%	3%	CSc1ccc(C(=O)C2CCCN(C(=O)CN3CCOC3=O)C2)cc1 (stereo not given)
-5%	-4%	O=S(=O)([O-])CCC[n+]1c(SCCCS(=O)(=O)O)sc2ccc(Cl)cc21
0%	-5%	Cc1nn(Cc2ccccc2)c(=O)c2nn(-c3ccc(Cl)cc3)c(C)c12
-4%	.	COc1ccc(CNC(=O)c2cc3cc(C)ccc3n2C)cc1
-7%	-2%	Cc1ccccc1NC(=O)CN1C(=O)C2C3CC(C(Br)C3Br)C2C1=O (stereo not given)
-13%	.	Cc1cc2c(cc1S(=O)(=O)CCC(=O)Nc1ccc(OC(F)(F)F)cc1)OCC(=O)N2
-3%	0%	COc1cccc(/C=C2\CCCCC2=O)c1
-12%	8%	Cc1ccsc1/C=N\NC(=O)c1cc(C(C)(C)C)[nH]n1
-7%	.	C[C@H](CO)N1C[C@H](C)[C@@H](CN(C)S(=O)(=O)c2cccs2)Oc2ccc(NS(=O)(=O)c3cn(C)cn3)cc2C1=O
1%	.	CCc1ccc(NS(=O)(=O)c2ccc3oc(=O)c4ncn(CC)c4c3c2)cc1
18%	4%	Cc1cc(C)n(CC2CC(=O)N(c3ccc(C)c(Cl)c3)C2=O)n1 (stereo not given)
1%	13%	CC(C)C[C@H](NC(=O)[C@H](Cc1ccccc1)n1c(=O)[nH]c2ccccc2c1=O)C(=O)N1CCC[C@@H]1C(=O)O
-3%	3%	Cc1cc(Nc2ccc(C(C)C)cc2)n2ncnc2n1
-1%	-22%	CN(C(=O)CCN1C(=O)/C(=C/c2ccccc2)SC1=S)C1CCS(=O)(=O)C1 (stereo not given)
-2%	9%	COCCNC(C(=O)Nc1ccc(C)cc1[N+](=O)[O-])c1ccccc1 (stereo not given)
?	-12%	O=C(CCNC(=O)C1CCN(S(=O)(=O)c2ccccc2)CC1)NCc1ccc(Cl)c(Cl)c1
-8%	8%	CCCNC(=O)Nc1ccc(C(F)(F)F)cc1
0%	-11%	CC(C)(C)NC(=O)C(OC(=O)c1ccco1)c1ccc(Cl)cc1 (stereo not given)
1%	6%	CCN1CCC2(CC1)C(C#N)=C(N)Oc1c2sc2nc(C)cc(C)c12
-7%	-21%	Cc1cc2c(cc1S(=O)(=O)Nc1c(C)cccc1C)n(C)c(=O)c(=O)n2C
1%	21%	CCc1ccc(OCC(=O)NC(C)(C)C)cc1
-12%	-4%	COc1cc(/C=N/NC(=O)COc2ccc(C)cc2)ccc1OC(=O)c1cccs1
1%&1%	-17%	CCN(CC)CCNC(=O)c1cn(CC)c2ccc(S(=O)(=O)N(C)C3CCCCC3)cc2c1=O
-1%	-11%	CCS(=O)(=O)c1ccc(C(=O)NC2CC2)c(Cl)c1Cl
0%	2%	COc1cccc(C2=NOC(C(=O)NCc3ccccc3)C2)c1 (stereo not given)
-1%	-19%	O=C(OCC1CCNCC1)c1ccc2c(c1)OCO2
-3%	-6%	O=C(NCc1ccco1)c1nn2cccnc2c1Cl

Next section.
GCN5L2 inh	N370S GC mod	smiles
-4%	-11%	COc1ccccc1Nc1nc(N)nc(CN2CCOCC2)n1
-1%	4%	CCCCn1nc(CC(=O)O)c2ccccc2c1=O
-10%	-12%	CC(C)c1nc(SCC(=O)NC2CCCC2)c2c(=O)n(C)c(=O)n(C)c2n1
-6%	17%	O=S(=O)(c1ccc(Br)cc1)N1CCOC12CCCCC2
-2%	0%	Cc1ccc(C)c(NC(=O)CN(C)S(=O)(=O)c2ccc(F)cc2)c1
2%&-3%	-17%	Cc1ccc(NS(=O)(=O)c2ccc3[nH]c(=O)oc3c2)c(C)c1
-1%	9%	COC(=O)NNC(=O)COc1cc(C)ccc1C
-2%	.	CCn1cc(S(=O)(=O)c2cc(C)cc(C)c2)c(=O)c2cc(F)c(N3CCOCC3)cc21
2%	.	CCC(OC(=O)C(CC(C)C)NC(=O)c1ccccc1)C(=O)Nc1nnc(C)s1 (stereo not given)
1%	-12%	CC(=O)NC(c1ccccc1)c1cc([N+](=O)[O-])c2cccnc2c1O (stereo not given)
-4%	-7%	O=C(c1cc(N2CCCCC2)nc2ccccc12)N1CCOCC1
1%	-13%	COc1cc(NC(=O)C23CC4CC(C2)CC(n2nnc(C)n2)(C4)C3)c(OC)cc1Cl
3%	1%	COc1ccc(CNC(=S)Nc2cc(OC)ccc2OC)cc1
-3%	-5%	COc1ccc(NC(=O)CN(C)C(=O)CNC(=O)C2CCCCC2)cc1
-2%	-1%	CCn1cnc2c1c(=O)n(CC(=O)O)c(=O)n2Cc1ccccc1
1%	-4%	COc1ccc(NC(=O)CC(c2ccco2)C(C)C)cc1 (stereo not given)
-2%	0%	CCCCCCN1C2=NCCCN2c2ccccc21
2%	.	O=C(OCc1ccccc1)c1ccc(-c2nnn(Cc3ccccc3F)n2)cc1
-4%	-12%	CCOC(=O)c1sc2nc(SCC(=O)N(CC)CC)n(CCCN3CCCC3=O)c(=O)c2c1C
-1%	.	COC(=O)C1CCN(C(=O)CN2C(=O)NC(CC(C)C)C2=O)CC1 (stereo not given)
-2%	3%	Cn1c(=O)cc(OCCCC(=O)Nc2ccc3c(c2)OCCO3)c2ccccc21
4%	.	Cc1cc(F)ccc1NC(=O)C1CCCN(c2nnc(-n3c(C)ccc3C)s2)C1 (stereo not given)
0%	9%	Cc1ccc(-n2c(-c3cccnc3)n[nH]c2=S)c(C)c1
-3%	-5%	CS(=O)(=O)N1CCN(c2ccc([N+](=O)[O-])c(NCCN3CCOCC3)c2)CC1
23%	6%	CCOC(=O)c1[nH]c2ccc(Cl)cc2c1NC(=O)/C=C/c1ccc2c(c1)OCO2
2%	-3%	COC(=O)c1ccccc1NC(=O)C1CCN(C(=O)c2cc(OC)cc(OC)c2)CC1
-2%	7%	COc1cccc(N2C(=O)C3ON(c4ccccc4)C(c4cccs4)C3C2=O)c1 (stereo not given)
-7%	.	O=C(OCC(=O)N1CCN(C(=O)c2ccco2)CC1)c1ccc(Cl)c(Cl)c1
4%	-1%	O=C(NC1CS(=O)(=O)CC1NCc1ccco1)c1ccccc1 (stereo not given)
0%	?	Cc1ccc(N=c2sc(C)c(C)n2C)cc1
-9%	.	CCOC(=O)c1c(NC(=O)c2ccc(S(=O)(=O)N3CCC(C)CC3)cc2)sc2c1CCN(C(C)C)C2
-6%	-9%	COc1ccc(CNS(=O)(=O)c2ccc3c(c2)CC(C)N3C(=O)C2CC2)cc1 (stereo not given)
0%	-2%	COC(=O)c1cc(O)c(OCc2ccccc2)c(O)c1
-5%	9%	Cc1ccc(OCCN2CCNCC2)c([N+](=O)[O-])c1
-3%	1%	Cc1cc(C(=O)N(C)CC(=O)Nc2ccccc2C(F)(F)F)c(C)o1
1%	.	Cc1ccc(C)c(OCCC(=O)N(C)CC(=O)Nc2c(C)cccc2C)c1
-2%	5%	O=C(NCCCNC1CCCCC1)c1ccc(/C=N/O)nc1
-5%	3%	COc1ccc(/C=N/n2c(-c3cc(C)[nH]n3)n[nH]c2=S)cc1OC
-3%	9%	CC(C)(C)c1csc(NNC(=O)c2ccc(Cl)cc2)n1
1%	-1%	CCNC(=S)N1CCN(Cc2ccc3c(c2)OCO3)CC1
-5%	-9%	Oc1ccc(N2CCN(C(c3ccncc3)c3nnnn3C3CCCC3)CC2)cc1 (stereo not given)
-4%	-1%	CCOC(CNC(=O)C1CCN(S(=O)(=O)c2ccc3nc4c(c(C(=O)O)c3c2)CCCCC4)CC1)OCC
-4%	-2%	Cc1ccc(C(=O)N/C(=C\c2ccco2)C(=O)N2CCCCC2)cc1
-3%	-16%	CCOC(=O)CSc1nnc(NC(=O)CCc2ccccc2)s1

Molecules from the list above with an NH in an aromatic ring, in the order listed:
GCN5L2 inh	N370S GC mod	smiles
-5%	-4%	Cc1cccc2[nH]c(CN(C)C(=O)C3CCC(=O)N(CCc4ccccc4)C3)nc12 (stereo not given)
-5%	-8%	Cc1cccc(N2C(=O)c3ccc(C(=O)Nc4c[nH]c(=O)[nH]c4=O)cc3C2=O)c1
0%	.	CN(C(=O)COC(=O)COc1ccc2ccccc2c1)c1c(N)n(Cc2ccccc2)c(=O)[nH]c1=O
-2%	-8%	COc1cc(C(=O)Nc2c(C(=O)O)[nH]c3ccc(Br)cc23)cc(OC)c1OC
-9%	.	COc1ccc(CCNC(=O)CSc2nc3[nH]c(=O)cc(O)c3s2)cc1
3%	1%	C/C(O)=C(/C#N)c1nc2ccccc2[nH]1
-12%	8%	Cc1ccsc1/C=N\NC(=O)c1cc(C(C)(C)C)[nH]n1
1%	13%	CC(C)C[C@H](NC(=O)[C@H](Cc1ccccc1)n1c(=O)[nH]c2ccccc2c1=O)C(=O)N1CCC[C@@H]1C(=O)O
2%&-3%	-17%	Cc1ccc(NS(=O)(=O)c2ccc3[nH]c(=O)oc3c2)c(C)c1
0%	9%	Cc1ccc(-n2c(-c3cccnc3)n[nH]c2=S)c(C)c1
23%	6%	CCOC(=O)c1[nH]c2ccc(Cl)cc2c1NC(=O)/C=C/c1ccc2c(c1)OCO2
-5%	3%	COc1ccc(/C=N/n2c(-c3cc(C)[nH]n3)n[nH]c2=S)cc1OC

From PubChem

An excerpt, and most or all hits are left out here.
